Compound activity deposited in PubChem BioAssay by several laboratories.
HIV Env fusion: HIV envelope-mediated fusion inhibition; HeLa-JRFL Env/CEM21 cell fusion, luciferase; inhibition, % at 12.3 µM; actives 1.1% (n = 360,000); AID 651610;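 active = mean replicate inhibition score of at least 50 and every replicate individually at or above 50; inconclusive = only one of the two criteria met; inactive = mean below 50 and not all replicates reaching 50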;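 also: 0% = plate neutral controls and 100% = maraviroc near 300 nM; one replicate is shown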
eIF4H inh: inhibitors of RNA binding by human eIF4H; Q15056; eIF4H fluorescence polarization binding assay; inhibition, % at 35 µM; actives 0.94% (n = 290,000); AID 2012;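 active = 50% or more with normal probe brightness, or confirmed in later tests; inconclusive = above 50% with abnormal brightness, or retests that disagree; inactive = below 50% or failed in later tests; about a fifth of its hits are not listed in these tables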;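 also: calls also rest on retests at 20 µM and on dose response follow-up; 0% = protein and probe with vehicle and 100% = probe without protein; strong numbers were not always called active; many hits fall short of the cut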
MT1-MMP act inh: blocks activation of human MT1-MMP | HT1080 RFP-PRO-GFP cells, GFP/RFP ratio fluorescence, overnight; percent of plate control window, DMSO zero | GFP/RFP ratio change, % at 20 µM | AID 651647 | actives 0.061% (n = 360,000);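 active = GFP/RFP ratio change of at least 30% with cell ATP level not reduced by more than half and red fluorescence within 50% of control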; also: strong numbers were not always called active
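Assay system: HT1080 RFP-PRO-GFP cells. Benchmarks: DMSO vehicle wells and RFP-L50D-GFP reporter cell wells. Times: overnight cell settling, then overnight compound exposure, 37 °C, 5% CO2. Compound: 20 µM single dose, 1% DMSO. Read-out basis: GFP/RFP fluorescence ratio.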
Rce1 inh: yeast Ras-converting enzyme inhibition; Q03530; yeast membranes, quenched prenylated peptide cleavage fluorescence; calls only; actives 0.27% (n = 290,000); AID 2563;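 active = fall in fluorescence gain of 50% or more versus controls, with final raw signal at or below 3038400; inconclusive = same 50% fall but final raw signal above 3038400; inactive = fall in fluorescence gain under 50%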;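 also: plate controls were neutral control wells for no effect and wells lacking membranes for full effect; tested at 10 µM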
Target sequence (Q03530 whole entry, looked up): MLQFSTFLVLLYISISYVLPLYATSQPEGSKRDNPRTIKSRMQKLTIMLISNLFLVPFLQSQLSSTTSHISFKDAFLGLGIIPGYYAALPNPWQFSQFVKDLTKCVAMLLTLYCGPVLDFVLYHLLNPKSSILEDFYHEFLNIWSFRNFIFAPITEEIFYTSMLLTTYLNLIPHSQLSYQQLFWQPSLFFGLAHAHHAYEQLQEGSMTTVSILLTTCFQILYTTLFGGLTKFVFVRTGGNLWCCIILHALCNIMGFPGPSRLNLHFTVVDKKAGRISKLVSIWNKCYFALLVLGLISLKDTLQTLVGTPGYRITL
PABP polyA inh: blocks human PABP binding to poly(A) RNA | inhibition, % at 35 µM | fluorescence polarization | actives 1% (n = 290,000) | P11940 | AID 2014;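 active = 50% or more with normal probe brightness, or confirmed in later tests; inconclusive = above 50% with abnormal brightness, or retests that disagree; inactive = below 50% or failed in later tests; about a fifth of its hits are not listed in these tables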;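 also: calls also rest on retests at 20 µM and on dose response follow-up; controls were probe without protein and protein plus probe with vehicle; some compounds called inactive have numbers as strong as hits; many hits fall short of the cut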
CSC inhib: blocks cancer stem cells; cancer stem cell-like cells viability, luminescence; inhibition, % at 7.5 µM; actives 1.1% (n = 300,000);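 active = mean at 75% or more and at least half the replicates too; inconclusive = mean and replicates disagree; tested in HMLE shEcad cells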;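 also: 0% = median of negative and 100% = median of positive control wells; the first replicate is given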
Yeast UUG start: yeast start codon fidelity modulation; S. cerevisiae UUG-firefly luciferase reporter, luminescence/redox ratio; activity score, % at 18.7 µM; actives 0.13% (n = 350,000); AID 602363;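 active = replicate mean at a twofold rise or more, about +100% in these data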;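 also: firefly luciferase made from a UUG start codon reports start codon fidelity; reporter light over untreated wells divided by growth signal over untreated wells; some hits fall short of that in this replicate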
MT1-MMP act inh RFP: recorded beside MT1-MMP act inh, whose call it bears; RFP signal change, %; measured here: RFP expression control read;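 0 = vehicle wells; hits needed this value within 50% of zero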
The depositor's hits bear a star; i = inactive; ? = inconclusive; nt = not tested or not shown; + = active, no number; & = joins results of further samples. These rows are one share of the data; the hit share may differ from the screen's.

Sequence of screens – Rce1 inh	MT1-MMP act inh RFP	CSC inhib	HIV Env fusion	PABP polyA inh	eIF4H inh	Yeast UUG start	MT1-MMP act inh
#1 O=C(Cc1ccc(NC(=O)C2CCCN(C(=O)C3CCC3)C2)cc1)Nc1ccc(C(=O)N2CCOCC2)cc1 (stereo not given)
→ nt	2.6	nt	-2.6	nt	nt	-11.4	4.1
#2 On1c(-c2ccccc2)nc2ccccc21
→ nt	2.1	-0.3	1.4	2.0	-13.4	nt	1.3
#3 Cc1cccc(C(=O)OCC(=O)c2cccc(Br)c2)c1O
→ i	-0.5	-3.3	nt	9.1	-3.7	-15.0	2.4
#4 CC1(c2ccccc2)CC(C)(C)N2C(=O)C3(C(C#N)=C(N)Oc4cc(O)ccc43)c3cccc1c32 (stereo not given)
→ i	-7.5	1.9	nt	-4.9	0.6	-19.3	-9.6
#5 Clc1ccc(Sc2ccc(/C=N/n3cnnc3)o2)cc1
→ i	1.6	-1.2	nt	-1.7	6.5	-9.8	-2.6
#6 CCOC(=O)CNC(=O)C(Cc1ccccc1)NS(=O)(=O)c1cccs1 (stereo not given)
→ nt	-10.8	-10.8	-71.3	0.9	-3.0	0.9	-6.4
#7 Cc1cc(Br)ccc1NC(=O)CNC(=O)COc1ccccc1C
→ i	5.8	nt	-79.6	nt	nt	nt	1.9
#8 CC1CC1C(=O)OCC(=O)NC(=O)c1ccccc1 (stereo not given)
→ i	3.6	-1.6	4.7	nt	nt	-7.9	-2.5
#9 COc1c(C=O)cc2c3c1CCCN3CCC2
→ i	0.9	-17.8	15.7	0.3	0.1	-11.3	-3.4
#10 COc1ccccc1NC(=O)C(=O)NCCC1CCCCN1S(=O)(=O)c1cccs1 (stereo not given)
→ i	-3.7	1.3	9.8	nt	nt	12.4	0.7
#11 COc1ccc(C2CC(c3ccc4ccccc4c3)=NN2C(=O)COC(=O)C2CCC(=O)N2)cc1 (stereo not given)
→ i	-7.5	1.9	-105.0	-8.3	-11.7	-3.4	-3.1
#12 COC(=O)Nc1ccc(S(=O)(=O)N2CCCC(C(=O)O)C2)cc1 (stereo not given)
→ i	2.9	-3.1	-12.8	-0.7	-2.0	nt	3.6
#13 CCc1ccc(C2c3[nH]c4ccccc4c3CCN2C(=O)CN2CCN(CC)CC2)cc1 (stereo not given)
→ i	-5.1	23.0	-8.0	-7.8	-5.2	nt	-3.7
#14 COc1cc(NS(=O)(=O)c2ccc(C)c(C)c2)c(OC)cc1Cl
→ i	-4.6	-0.6	-43.9	-1.2	0.5	1.5	4.0
#15 C/C(CC1(O)C(=O)Nc2ccccc21)=N\O (stereo not given)
→ +	3.0	3.4	nt	0.6	2.4	1.4	-15.5
#16 CCN(CC)CC(=O)Nc1ccc(-c2nc3cc(NC(=O)CN(CC)CC)ccc3o2)cc1
→ i	-0.8	7.6	nt	47.4	9.1	-10.1	11.1
#17 Cc1ccc2c(c1)[C@H]1[C@H](CO2)[C@H](c2ccccc2)[C@]2(C)C(=O)N(Cc3ccc(F)cc3)CC(=O)N12
→ nt	-2.8	20.2	62.3*	nt	nt	-8.0	-88.6
#18 CN(C)CCCNC(=O)C[C@H]1C[C@H](C(=O)N2CCOCC2)[C@@]2(C)c3[nH]c4cc(-c5ccco5)ccc4c3CCN2C1=O
→ nt	1.5	nt	4.8	nt	nt	4.2	-2.3
#19 CC1(C)Cc2c(C#N)c(N3CCN(C(=O)c4ccccc4)CC3)nc(Cc3ccccc3)c2CO1
→ i	-10.2	27.8	nt	11.6	-4.4	-10.4	-4.5
#20 O/N=C/c1cn(-c2ccccc2)nc1-c1ccccc1
→ i	-1.6	7.9	4.9	19.1	3.4	0.2	-4.3
#21 COc1ccc(N2CC(C(=O)N[C@@H](C)C(=O)NC3CCCC3)CC2=O)cc1 (stereo not given in full)
→ i	1.4	-0.3	-0.9	0.9	5.6	-2.2	0.0
#22 Cc1cccnc1NC(=O)CCNC(=O)c1ccc(Br)cc1
→ i	0.3	-12.8	0.6	4.1	1.3	-13.7	-1.0
#23 Cc1ccc(C(=O)NCCc2nnc(SCC(=O)Nc3cccc(C(=O)O)c3)n2C)cc1
→ i	2.2	-5.1	nt	-9.6	-10.7	-5.0	-4.3
#24 O=C(CN1CCN(C(=O)c2ccco2)CC1)Nc1cc(Cl)ccc1Cl
→ i	2.9	2.5	2.3	-4.9	3.8	-1.5	3.6
#25 CN(C)c1ccc(NC(=O)CN2CCC(O)(c3ccccc3)CC2)cc1
→ i	-1.4	-13.4	21.2	-2.7	-2.2	nt	3.4
#26 Cc1ccc(S(=O)(=O)N(C)Cc2nc(-c3ccc(Br)cc3)no2)cc1
→ i	-5.5	4.7	1.0	-6.2	-1.9	3.1	1.8
#27 COc1ccc(-c2cn3cccnc3n2)cc1
→ i	-0.9	-9.4	-11.3	-24.1	-6.3	nt	0.1
#28 CCOC(=O)c1nc(Nc2cc(Cl)ccc2OC)c2ccccc2n1
→ i	-3.2	-8.3	-2.3	7.8	3.3	-23.8	2.6
#29 CC(=O)N(C1=C(N2CCOCC2)C(=O)c2ccccc2C1=O)c1ccc(C(=O)O)cc1
→ i	0.4	-5.0	2.4	1.1	2.0	nt	6.7
#30 CCNc1nc(NCc2ccccc2)nc(Oc2ccc(=O)[nH]n2)n1
→ nt	1.2	-7.4	-193.5	-0.7	-2.3	-11.1	-0.8

In another format: two of the compounds above
24) O=C(CN1CCN(C(=O)c2ccco2)CC1)Nc1cc(Cl)ccc1Cl
  Rce1 inh: i
  MT1-MMP act inh RFP: 2.9
  CSC inhib: 2.5
  HIV Env fusion: 2.3
  PABP polyA inh: -4.9
  eIF4H inh: 3.8
  Yeast UUG start: -1.5
  MT1-MMP act inh: 3.6

25) CN(C)c1ccc(NC(=O)CN2CCC(O)(c3ccccc3)CC2)cc1
  Rce1 inh: i
  MT1-MMP act inh RFP: -1.4
  CSC inhib: -13.4
  HIV Env fusion: 21.2
  PABP polyA inh: -2.7
  eIF4H inh: -2.2
  Yeast UUG start: nt
  MT1-MMP act inh: 3.4

Additional results:
Sequence of screens – Rce1 inh	MT1-MMP act inh RFP	CSC inhib	HIV Env fusion	PABP polyA inh	eIF4H inh	Yeast UUG start	MT1-MMP act inh
#31 O=[N+]([O-])c1[nH]cnc1/C=C/c1ccccc1
→ i	-10.2	-4.5	3.0	5.2	-16.2	-19.2	0.4
#32 CC(=O)c1csc(-c2cccc(-c3nc4ccc(Cl)cn4c3NC3CCCCC3)c2)c1
→ i	-7.4	11.7	34.1	nt	nt	-19.9	4.6
#33 Cc1nnc(SCc2ccc(CSc3nnc(C)c(=O)[nH]3)cc2)[nH]c1=O
→ i	3.8	-8.2	1.9	?	2.3	nt	-2.9
#34 CC(=O)NC1C(=O)SC1(C)C (stereo not given)
→ i	nt	-1.1	nt	-3.6	-3.8	nt	nt
#35 CCOC(=O)N1CCC(NC(=O)C2CCCN(S(=O)(=O)c3cccc4nsnc34)C2)CC1 (stereo not given)
→ i	-9.8	-8.1	-16.2	-0.2	-3.2	-12.0	-8.5
#36 O=c1c2ccccc2ncn1CCOCCOc1ccc([N+](=O)[O-])cc1
→ i	-4.9	4.2	11.7	9.4	6.3	-7.2	-1.4
#37 O=C1c2[nH]nc(-c3ccccc3O)c2C(c2ccccc2F)N1Cc1ccco1 (stereo not given)
→ i	-5.3	6.3	-95.4	-4.1	-2.2	4.2	-1.0
#38 O=[N+]([O-])c1ccc(N2CCCCCC2)c([N+](=O)[O-])c1
→ i	-9.9	62.5	-224.6	-2.6	-6.4	-21.0	-5.7
#39 CCNC(=O)C(=O)Nc1cc2c3c(c1)CCN3C(=O)CC2
→ i	9.8	19.9	-3.4	3.3	-9.2	-17.0	7.2
#40 Cc1cccc(C(=O)n2c(=S)nc3ccccn32)c1
→ i	4.8	2.2	nt	-9.6	-7.0	-22.6	6.2
#41 O=C1CCN(CCc2ccccc2)CCN1[C@H](CSc1ccc(Br)cc1)Cc1ccccc1
→ i	-9.9	52.4	-6.5	21.5	-7.0	-6.2	-2.8
#42 Cc1nc2ccc(C(=O)N3CCC(O)(Cc4ccccc4)CC3)cn2c1N(C)C(=O)CCc1ccccc1
→ nt	2.4	nt	4.4	nt	nt	8.9	3.7
#43 COc1ccc(N2CC(NC(=O)c3cccc4ccccc34)CC2=O)cc1OC (stereo not given)
→ i	-0.9	nt	14.8	nt	nt	-1.2	1.3
#44 CCCCN1C(=O)C(=O)N(CC(=O)Nc2cc(S(=O)(=O)N(C)C)ccc2C)C1=O
→ i	0.0	-3.6	-7.0	nt	nt	-4.6	-1.0
#45 Cc1ccc(CNC(=O)c2cc(S(=O)(=O)N3CCCC3)cn2C)cc1
→ i	4.5	0.0	27.4	-5.1	5.1	-8.7	1.9
#46 O=C(c1cc2ccccc2o1)N1CCN(S(=O)(=O)c2ccccc2)CC1
→ nt	-12.8	nt	?	nt	nt	-17.1	17.3
#47 CCCn1c(N)c(N2CCCCC2)c(=O)n(CC(=O)Nc2cccc(S(=O)(=O)N(C)C)c2)c1=O
→ nt	0.9	-21.6	10.7	nt	nt	-3.8	2.3
#48 O=C(N/N=C/c1ccc2c(c1)OCO2)c1ccn(Cc2ccc(Cl)cc2)n1
→ i	0.1	-16.9	-7.4	-0.4	-6.2	-19.4	2.5
#49 CN1C[C@H](C(=O)N[C@]2(C)O[C@@]3(O)[C@@H]4CCCN4C(=O)[C@H](Cc4ccccc4)N3C2=O)CC2c3cccc4[nH]cc(c34)C[C@H]21 (stereo not given in full)
→ nt	8.9&2.1	-8.6	-213.8&-115.1	nt	nt	7.1&-0.4	-0.1&-3.2
#50 O=[N+]([O-])c1ccc(N/N=C2/CCCCC2c2ccccn2)cc1 (stereo not given)
→ i	-6.0	nt	3.6	-1.4	-3.5	nt	-4.9
#51 c1ccc2c(c1)C(=Nn1cnnc1)c1ccccc1-2
→ i	-0.4	nt	nt	9.4	-9.4	-10.1	3.1
#52 O=c1[nH]n(CCO)c(=O)c2cccnc12
→ i	-0.2	-5.1	3.4	6.3	4.6	nt	1.0
#53 CNC(=O)C(C)N1c2cccc3cccc(c23)S1(=O)=O (stereo not given)
→ i	6.5	0.4	-3.4	0.6	-5.8	12.2	0.8
#54 COc1ccc2c(C)nc(N/C(N)=N/S(=O)(=O)c3ccc(C)cc3)nc2c1
→ i	-3.1	1.4	-47.2	4.0	-5.7	nt	3.0
#55 O=C(NCCCNc1ccc([N+](=O)[O-])cc1)C(F)(F)F
→ i	0.1	-7.4	-27.1	-2.5	-1.6	nt	2.6
#56 CC(=O)Nc1ccc(NC(=O)C2(C)Cc3c(-c4cccc(C(N)=O)c4)ccnc3O2)cc1 (stereo not given)
→ nt	11.7	nt	20.5	nt	nt	3.9	0.4
#57 Cc1onc(-c2c(F)cccc2Cl)c1C(=O)NC(=S)NC1CCS(=O)(=O)C1 (stereo not given)
→ i	3.2	-6.0	-14.5	-3.7	-8.5	-17.7	8.3
#58 CC(=O)OC1CCC2(C)C3CCC4(C)C(C(C)=O)CCC4C3CC3OC32C1 (stereo not given)
→ nt	-0.6	nt	-317.0	nt	nt	-28.9	3.0
#59 COc1cccc(-n2c(=O)c3sccc3n(CC(=O)NCC3CCCO3)c2=O)c1 (stereo not given)
→ i	2.9	-17.6	1.2	13.1	-3.8	-9.6	0.4
